Bioassay records as filed in PubChem.
PI4K2A block: qHTS for small molecular inhibitors of PI4K2A. Phosphatidylinositol 4-kinase type 2-alpha (Homo sapiens), Q9BTU6. 420,000 compounds, 0.13% hits. AID 1346378, 2018. activity change, negative = inhibition, % at 76.9 µM. purified PI4K2A, ADP-Glo luminescence, 1 h; active compounds read low; in the data active = activity change below about -50%; inconclusive = mostly about -30% to -49%;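 note: -100% = wells without enzyme as full effect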
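In this quantitative HTS, ADP production by PI4K2A was quantified luminescently after 1 h at ambient temperature; 100 microM adenosine served as plate-quality control.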
RGS4 inhibitor: Inhibitors of Regulator of G Protein Signaling (RGS) 4: qHTS; Regulator of G-protein signaling 4 (Homo sapiens), P49798; Transcreener GDP fluorescence polarization, RGS4-accelerated GTP hydrolysis; Potency, µM (doses to about 114 µM), for the others: at the highest dose activity change, negative = inhibition, usual class: inhibitors; 390,000 compounds, 0.039% hits; note: potency is the fitted concentration of half-maximal effect; % is set by controls: 0 for no effect and ±100 for the full control effect; nearly all actives have a fitted effect of over 75% in size; some results filed as inactive show a strong effect at the top dose
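MLSMR compounds (23 nl, pin-transferred) preincubated 10 min at room temperature with a 500nM (2x) first reagent, then RGS4 at 900nM (2x) plus Transcreener GDP mix added; fluorescence polarization (620/688 nm) read before and after 90 min at 30 °C.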
G9a block: qHTS Assay for Inhibitors of Histone Lysine Methyltransferase G9a | Histone-lysine N-methyltransferase EHMT2 (Homo sapiens), Q96KQ7 | G9a H3K9 monomethylation, AlphaScreen, 2 h | Potency, µM (doses to about 102 µM), inactives show at the highest dose activity, negative = inhibition, most hits filed as inhibitors | 350,000 compounds, 8.8% hits | AID 504332, 2011; note: potency is the fitted concentration of half-maximal effect; % is set by controls: 0 for no effect and ±100 for the full control effect; nearly all actives have a fitted effect of over 75% in size
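AlphaScreen read-out: biotin-H3K9 peptide (500 nM) methylation by 20 nM enzyme with 20 uM SAM, 2 h at room temperature after 15 min compound preincubation; anti-monomethyl H3K9 antibody plus donor/acceptor beads, 10 min dark.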
GLS inhibitor: qHTS for Inhibitors of Glutaminase (GLS); AID 624170, 2012; Potency, µM (titrated, usually from 45.5 µM), inactives show top-dose activity change, negative = inhibition, most hits filed as inhibitors; 410,000 compounds, 0.21% hits; GLS enzymatic activity, qHTS titration; note: potency is the fitted concentration of half-maximal effect; % is set by controls: 0 for no effect and ±100 for the full control effect
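Glutamate formation by hKGA was monitored fluorometrically using coupled glutamate oxidase, HRP and Amplex Red. Substrate was added as 1 mM L-glutamine solution; incubation was 30 min at RT after an initial read.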
ALOX12 inh: Primary qHTS assay for inhibitors of human arachidonate 12S-lipoxygenase (ALOX12): Round 2; Polyunsaturated fatty acid lipoxygenase ALOX12 (Homo sapiens), P18054; purified 12hLO, xylenol orange hydroperoxide absorbance; Potency, µM (series often up to 108 µM), for inactives: at the highest dose activity change, negative = inhibition, hits mostly inhibitors; 580,000 compounds, 1.1% hits; AID 1671190, 2021; note: potency is the fitted concentration of half-maximal effect; % is set by controls: 0 for no effect and ±100 for the full control effect
Target sequence (P18054 whole entry, looked up): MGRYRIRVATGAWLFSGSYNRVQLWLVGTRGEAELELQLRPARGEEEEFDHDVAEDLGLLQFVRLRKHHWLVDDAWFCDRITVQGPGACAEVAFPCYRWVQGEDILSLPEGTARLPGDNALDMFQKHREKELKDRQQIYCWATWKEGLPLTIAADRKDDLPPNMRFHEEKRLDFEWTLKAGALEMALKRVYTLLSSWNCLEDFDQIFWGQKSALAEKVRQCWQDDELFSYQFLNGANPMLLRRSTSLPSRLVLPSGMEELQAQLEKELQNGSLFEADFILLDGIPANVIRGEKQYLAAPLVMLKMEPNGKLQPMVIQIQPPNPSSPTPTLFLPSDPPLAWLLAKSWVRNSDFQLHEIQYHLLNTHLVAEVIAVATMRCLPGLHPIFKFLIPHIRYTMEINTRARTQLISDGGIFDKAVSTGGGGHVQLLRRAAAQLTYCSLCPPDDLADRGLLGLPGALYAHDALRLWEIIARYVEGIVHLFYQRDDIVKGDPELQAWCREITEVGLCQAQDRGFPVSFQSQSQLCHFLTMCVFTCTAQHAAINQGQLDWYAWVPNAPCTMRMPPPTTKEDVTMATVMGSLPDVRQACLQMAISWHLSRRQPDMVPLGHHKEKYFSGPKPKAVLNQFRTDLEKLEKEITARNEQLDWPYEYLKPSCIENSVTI
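Purified human 12hLO at 150 nM in 25 mM Hepes, 0.01% Triton X-100, pH 7.0, preincubated 15 min at room temperature with compound. Reaction started with 40 uM arachidonic acid, 30 min at room temperature. Hydroperoxide measured by Fe-xylenol orange, 573/405 nm absorbance ratio.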
ERG Ets-DNA blk: qHTS for Small Molecule Inhibitors of the ERG Ets/DNA interaction. fluorescence polarization, His-ERG Ets domain / labelled DNA. Potency, µM (highest dose often 76.9 µM), without a hit: at the top dose FP activity, negative = inhibition, most hits filed as inhibitors. Transcriptional regulator ERG (Homo sapiens), P11308. 370,000 compounds, 0.028% hits; active = well fitted inhibition curve with a large enough effect in the polarisation, with a control signal flat; inconclusive = small, poorly fitted or top-dose-only effect, or effect the other way, or a change in a side signal; inactive = no such curve, though single readings can be large or run the other way; the % refers to the polarisation;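 note: polarization taken with two DNA probes labelled with fluorescein and Texas red; potency is the fitted concentration of half-maximal effect; % of control where 0% means no effect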
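His-tagged ERG Ets domain (1 uM in the protein solution; 300mM KCl, 50mM Tris-HCl, 1mM EDTA, 1mM DTT, pH 7.5) received compound, then a probe mix of 5 nM fluorescein-DNA and 100nM Texas-615-DNA. Fluorescence polarization was read for both dyes.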
* marks the source's active call; other numbers are inactive results; ? = inconclusive; . = not tested or not shown; ! = a repeat was not active. Unless noted, calls come from the whole dose curve; as a rule, active = well fitted curve in the direction sought with a large enough effect; inconclusive = small, poorly fitted or top-dose-only effect, or another doubt; inactive = no such curve, though single readings can be large; an effect the other way counts as inactive or inconclusive.

Letter code: A = PI4K2A block; B = RGS4 inhibitor; C = G9a block; D = GLS inhibitor; E = ALOX12 inh; F = ERG Ets-DNA blk
1: O=C(CN1CCN(c2ccc(F)cc2)CC1)NCc1cccs1
  A = 5; B = -15%; C = 2.2µM*; D = -2%; E = ?; F = -12%

2: CCOc1ccc(OCCCN(C)C)cc1
  A = 8; B = -5%; C = ?; D = 9%; E = ?; F = 8%

3: CSc1ccc(NC(=O)C(C)N2CCN(C)CC2)cc1 (stereo not drawn)
  A = 6; B = -2%; C = 45µM*; D = -4%; E = ?; F = 8%

4: CCN1CCN(c2oc(-c3ccc(COc4ccc(C)cc4)o3)nc2C#N)CC1
  A = -1; B = 2%; C = ?; D = -1%; E = ?; F = -2%

5: CCc1nnc(NC(=O)c2nc3nc(C)cc(C)n3n2)s1
  A = 2; B = 28%; C = ?; D = 8%; E = ?; F = 13%

6: Brc1ccc(CN2CCSCC2)cc1
  A = -1; B = -25%; C = 20µM*; D = -1%; E = ?; F = -10%

7: CC(O)C(O)[C@H]1CNc2nc(N)[nH]c(=O)c2N1 (stereo partly drawn)
  A = -26; B = ?; C = 3.8µM*; D = -6%; E = .; F = .

8: CCOc1ccc2nc(N(CCN(C)C)C(=O)c3ccc4ccccc4c3)sc2c1
  A = -3; B = 15%; C = .; D = -7%; E = -29%; F = 5%

9: CCOc1ccc(OCCNCc2ccc(OC(C)C(=O)N(C)C)c(OCC)c2)cc1 (stereo not drawn)
  A = 13; B = -6%; C = ?; D = -15%; E = ?; F = -17%

10: O=C(O)/C=C/C(=O)Nc1cc(F)ccc1F
  A = 5; B = 15%; C = .; D = 1%; E = ?; F = -4%

11: Nc1nc(=S)c2ncn(C3OC(CO)CC3O)c2[nH]1 (stereo not drawn)
  A = -9; B = -35%; C = .; D = -17%; E = ?; F = .

12: O=C(NNc1c([N+](=O)[O-])cc(C(F)(F)F)cc1[N+](=O)[O-])c1ccco1
  A = -21; B = -13%; C = ?; D = -4%; E = ?; F = 10%

13: COc1ccc(CCN(C)C(=O)C2CCCN(Cc3ccc(OC)c(OC)c3)C2)cc1OC (stereo not drawn)
  A = 1; B = 13%; C = 5µM*!; D = 2%; E = -29%; F = 7%

14: CC(C)CC(=O)N1CCN(CC2CC=CCC2)CC1 (stereo not drawn)
  A = -2; B = -4%; C = 6.3µM*; D = 9%; E = ?; F = 5%

Grouped by structure: the entries above containing four or more nitrogen atoms
Letter code: A = PI4K2A block; B = RGS4 inhibitor; C = G9a block; D = GLS inhibitor; E = ALOX12 inh; F = ERG Ets-DNA blk
4: CCN1CCN(c2oc(-c3ccc(COc4ccc(C)cc4)o3)nc2C#N)CC1
  A = -1; B = 2%; C = ?; D = -1%; E = ?; F = -2%

5: CCc1nnc(NC(=O)c2nc3nc(C)cc(C)n3n2)s1
  A = 2; B = 28%; C = ?; D = 8%; E = ?; F = 13%

7: CC(O)C(O)[C@H]1CNc2nc(N)[nH]c(=O)c2N1 (stereo partly drawn)
  A = -26; B = ?; C = 3.8µM*; D = -6%; E = .; F = .

11: Nc1nc(=S)c2ncn(C3OC(CO)CC3O)c2[nH]1 (stereo not drawn)
  A = -9; B = -35%; C = .; D = -17%; E = ?; F = .

12: O=C(NNc1c([N+](=O)[O-])cc(C(F)(F)F)cc1[N+](=O)[O-])c1ccco1
  A = -21; B = -13%; C = ?; D = -4%; E = ?; F = 10%

Not all compounds are listed; count on the stated rates, not on these rows.
